High-throughput results: PubChem BioAssay, Vanderbilt University
GIRK2 activ – activators of human GIRK2 potassium channels | G protein-activated inward rectifier potassium channel 2 (Homo sapiens), P48051 | HEK293-GIRK2 thallium flux, Thallos fluorescence | calls only for hits at 25 µM | 63,000 tested, 0.05% active | AID 1259325, 2017;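 active = among the strongest 0.2% of first-round signals and kept after retests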;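 note: first round at about 10 µM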
Target sequence (P48051 whole entry, looked up): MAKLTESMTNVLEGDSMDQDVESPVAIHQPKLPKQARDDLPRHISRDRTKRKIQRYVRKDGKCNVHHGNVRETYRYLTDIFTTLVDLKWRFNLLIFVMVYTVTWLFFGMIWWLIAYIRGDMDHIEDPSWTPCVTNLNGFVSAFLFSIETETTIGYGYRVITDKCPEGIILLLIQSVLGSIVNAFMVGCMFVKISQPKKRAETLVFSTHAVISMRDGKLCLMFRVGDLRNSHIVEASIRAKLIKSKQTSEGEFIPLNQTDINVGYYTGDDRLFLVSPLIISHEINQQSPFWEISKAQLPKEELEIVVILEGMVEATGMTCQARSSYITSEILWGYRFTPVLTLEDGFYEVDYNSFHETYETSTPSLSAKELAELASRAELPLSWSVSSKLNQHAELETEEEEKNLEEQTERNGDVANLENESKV
Calls only; i = inactive. The list is partial, so the mix of outcomes need not match the whole.

SMILES | GIRK2 activ
CC(C)Oc1ccc(C(=O)NCC#CCN(C)C)cc1 | i
C=C(C)[C@@H]1CCC(C)=C[C@H]1C1=C(O)C(=O)C(CCCCC)=CC1=O | i
COc1ccccc1OCC(=O)N1CCN(Cc2nc3ccccc3[nH]2)CC1 | i
CCCCCC(/C=C/C=O)OO (stereo unspecified) | i
Oc1ccc2c3c1OC1C(O)CC[C@@]4(O)[C@@H](C2)N(CC2CCC2)CC[C@]314 (stereo partly specified) | i
O[C@@H]1CCCC[C@H]1N1CCC(c2ccccc2)CC1 | i
C[C@]12CCC(=O)C[C@@H]1CC[C@@H]1[C@@H]2CC[C@@]2(C)[C@H]1CC[C@]2(C)O | i
O=C(Nc1ccccc1Cl)c1cc2cccnc2n(Cc2ccc(F)cc2)c1=O | i
CN(C)CC#CCNC(=O)CCCc1ccccc1 | i
CNC(=O)Oc1cc(C)c(/C=C/c2cncc(C(=O)NC)c2)c(C)c1 | i
CN1CCN(c2ncnc3[nH]ncc23)CC1 | i
O=C(CN1CCN(C(=O)COc2ccccc2F)CC1)c1ccco1 | i
CCCS(=O)(=O)NCC#CCN(C(C)C)C(C)C | i
CC[C@]1(O)C(=O)OCc2c1cc1n(c2=O)Cc2cc3cc(OC(=O)CCC(=O)OCCNC(=O)Cc4c(C)n(C(=O)c5ccc(Cl)cc5)c5ccc(OC)cc45)ccc3nc2-1 | i
Cc1noc(C)c1CN1CCN(C(=O)Cc2ccc(SC(C)C)cc2)CC1 | i
CCCCC/C=C\C/C=C\C/C=C\C/C=C\CCCC(=O)Nc1ccc2c(C)cc(=O)oc2c1 | i
O=C(Cc1ccccc1Br)N1CCN(Cc2nncn2C2CCCCC2)CC1 | i
Cc1nc2ccc(NC(=O)C(C)(C)C)cc2c(=O)n1-c1ccc(Cl)cc1 | i
CCCC(C)(COC(N)=O)COC(=O)NC(C)C (stereo unspecified) | i
C/C=C(\C)C(=O)O[C@H]1CC2C(=C1C)[C@H]1OC(=O)[C@](C)(O)[C@]1(O)[C@H](OC(=O)CCC)C[C@@]2(C)OC(C)=O (stereo partly specified) | i
CC1CCCC(=O)CCC/C=C/c2cc(OS(=O)(=O)O)cc(O)c2C(=O)O1 (stereo unspecified) | i
CO[C@@H]1[C@@H](O)[C@H](C)O[C@@H](O[C@H]2CC[C@]3(C)C4CC[C@]5(C)[C@H](C6=CC(=O)OC6)CC[C@]5(O)C4CC[C@@H]3C2)[C@H]1OC(C)=O (stereo partly specified) | i
CN(C)[C@@H]1C(=O)C(C(N)=O)=C(O)[C@@]2(O)C(=O)C3=C(O)c4c(O)cccc4[C@@](C)(O)[C@H]3[C@H](O)[C@@H]12 | i
O=C(Nc1ccc(Cl)cc1)c1cc2cccnc2n(Cc2ccc(F)cc2)c1=O | i
Cc1[nH]c2ccc(F)cc2c1CCN | i
Next structures:
SMILES | GIRK2 activ
O=c1oc2ccccc2c2c1C(c1ccc(O)cc1)c1c(c3ccccc3oc1=O)O2 | i
COc1ccc(NC(C)=O)cc1NC(=O)c1cc2cccnc2n(Cc2ccccc2)c1=O | i
Cc1nc(SCc2ccccc2)[nH]c(=O)c1CC(=O)N1CCN(Cc2ccccc2)CC1 | i
O=C(c1ccc2c(c1)OCO2)N1CC2CC(C1)c1cccc(=O)n1C2 (stereo unspecified) | i
CN1CC[C@@H](c2ccc(F)cc2)[C@H](COc2ccc3c(c2)OCO3)C1 | i
Cc1noc(C)c1CCC(=O)N1CC2CC(C1)c1cccc(=O)n1C2 (stereo unspecified) | i
Cc1noc(C)c1CN1CCN(C(=O)Cc2ccccc2Cl)CC1 | i
CCN(CC)CC#CCNC(=O)c1ccccc1F | i
CC(NC(=O)c1cc2cccnc2n(Cc2ccc(Cl)cc2)c1=O)c1ccccc1 (stereo unspecified) | i
Cc1oc2cc(OC(=O)N(C)C)ccc2c(=O)c1Oc1ccccc1Br | i
CCOc1ccc(NC(=O)c2ccc(S(=O)(=O)N(CCCl)CCCl)cc2)c([N+](=O)[O-])c1 | i
CC1CN(c2ccc(N)cc2)CCN1C (stereo unspecified) | i
CCCCCCCC/C=C\CCCCCCCC(=O)OCC(COP(O)(O)=S)OC (stereo unspecified) | i
COC(=O)c1ccccc1NC(=O)c1cc2cccnc2n(Cc2ccc(F)cc2)c1=O | i
CCCCC/C=C\C/C=C\C/C=C\C/C=C\CCCC(=O)NC1CC1 | i
CN(C)C(=O)Oc1ccc2c(c1)O/C(=C\c1cc(Br)cc3c1OCOC3)C2=O | i
CCC(C)C1NC(=O)C2CCCN2C(=O)C(CC(C)C)OC(=O)CCNC(=O)C(C)N(C)C(=O)C(C(C)C)N(C)C1=O (stereo unspecified) | i
O=C(Cc1cccs1)N1CCN(Cc2nc(-c3ccc(F)cc3)cs2)CC1 | i
O=C(CN1CCN(C(=O)Cc2c[nH]c3ccccc23)CC1)c1ccco1 | i
NCC(CC(=O)O)c1cccnc1 (stereo unspecified) | i
O=C(Nc1ccc(C(F)(F)F)cc1)c1cc2cccnc2n(Cc2ccccc2)c1=O | i
COC(=O)c1ccc(Oc2coc3cc(OC(=O)N(C)C)ccc3c2=O)cc1 | i
O=C(O)CC1=C/C(=C\c2cccc3ccccc23)c2ccc(F)cc21 | i
O=C(c1ccc2ncsc2c1)N1CC2CC(C1)c1cccc(=O)n1C2 (stereo unspecified) | i
O=C(Nc1ccccc1C(F)(F)F)c1cc2cccnc2n(Cc2ccc(F)cc2)c1=O | i

Copied from the entries so far, three compounds:
SMILES | GIRK2 activ
O=c1oc2ccccc2c2c1C(c1ccc(O)cc1)c1c(c3ccccc3oc1=O)O2 | i
COc1ccc(NC(C)=O)cc1NC(=O)c1cc2cccnc2n(Cc2ccccc2)c1=O | i
Cc1nc(SCc2ccccc2)[nH]c(=O)c1CC(=O)N1CCN(Cc2ccccc2)CC1 | i

Structural class, the compounds so far containing a furan ring, fused or not
SMILES | GIRK2 activ
O=C(CN1CCN(C(=O)COc2ccccc2F)CC1)c1ccco1 | i
O=C(CN1CCN(C(=O)Cc2c[nH]c3ccccc23)CC1)c1ccco1 | i

The results go on.
SMILES | GIRK2 activ
O=S(=O)(NCC#CCN1CCCC1)c1cccnc1 | i
CCCC[C@@H](C)[C@@H](OC(=O)C[C@H](CC(=O)O)C(=O)O)[C@H](C[C@@H](C)CCCCCC[C@@H](O)C[C@H](O)[C@H](C)N)OC(=O)C[C@H](CC(=O)O)C(=O)O | i
O=C(c1ccc(-c2cccc([N+](=O)[O-])c2)o1)N1CC2CC(C1)c1cccc(=O)n1C2 (stereo unspecified) | i
c1ccc2nc(N3CCNCC3)ccc2c1 | i
CC(=O)NCC#CCN1CCOCC1 | i
O=C(Cc1c(F)cccc1Cl)N1CCN(CC(O)C2CC2)CC1 (stereo unspecified) | i
Cc1cc(N2CCN(C)CC2)nc2ccccc12 | i
COC1CC(O[C@H]2CC[C@]3(C)C4CC[C@]5(C)[C@@H](C6=CC(=O)OC6)CC[C@]5(O)[C@@H]4CC[C@]3(O)C2)OC(C)C1O (stereo partly specified) | i
CCOC(=O)NCC#CCN1CCCCC1 | i
COc1ccccc1CC(=O)N1CCN(Cc2cnnn2-c2ccccc2F)CC1 | i
COc1cccc(CC(=O)N2CCOCC2CN(C)C)c1 (stereo unspecified) | i
COc1ccc(CCNC(=O)c2cc3cccnc3n(Cc3ccc(F)cc3)c2=O)cc1OC | i
O=C(CSc1nc2ccccc2o1)N1CC2CC(C1)c1cccc(=O)n1C2 (stereo unspecified) | i
COc1ccc2nc(N(CCN3CCOCC3)C(=O)COc3ccccc3)sc2c1 | i
CN(C)C(=O)Oc1ccc2c(=O)c(-c3ccc(Br)cc3)c(C(F)(F)F)oc2c1 | i
Cc1nnc2n1-c1ccc(Cl)cc1C(c1ccccc1)=NC2 | i
CCOC(=O)c1ccc(NC(=O)c2cc3cccnc3n(Cc3ccccc3)c2=O)cc1 | i
COCCCn1c(N)c(C(=O)OCCC(C)C)c2nc3ccccc3nc21 | i
O=C(NCC#CCN1CCOCC1)c1cccc(Cl)c1 | i
CSc1cccc2sc(N(CCN(C)C)C(=O)Cc3ccc(S(C)(=O)=O)cc3)nc12 | i
CC(C)c1ccc(NC(=O)c2cc3cccnc3n(Cc3ccccc3)c2=O)cc1 | i
CCC1=CC2CN3CCc4c([nH]c5ccccc45)[C@@](C(=O)OC)(C2)[C@@H]13 | i
C=C(C)[C@@H]1CCC(C)=C[C@H]1c1c(OC)cc(CCCCC)cc1OC | i
O=C(Nc1ccc(F)c(Cl)c1)c1cc2cccnc2n(Cc2ccc(F)cc2)c1=O | i
COC(=O)[C@@]12C(=O)C(C)C(=O)[C@]1(C)C(C)=C[C@H]1[C@]3(C=O)CC[C@H](OC(C)=O)C(C)(C)[C@H]3CC[C@@]12C (stereo partly specified) | i

Continued (3 carried over from the part before).
SMILES | GIRK2 activ
C=C(C)[C@@H]1CCC(C)=C[C@H]1c1c(OC)cc(CCCCC)cc1OC | i
O=C(Nc1ccc(F)c(Cl)c1)c1cc2cccnc2n(Cc2ccc(F)cc2)c1=O | i
COC(=O)[C@@]12C(=O)C(C)C(=O)[C@]1(C)C(C)=C[C@H]1[C@]3(C=O)CC[C@H](OC(C)=O)C(C)(C)[C@H]3CC[C@@]12C (stereo partly specified) | i
OOCCC/C=C/c1ccccc1 | i
CN(C)C(=O)Oc1cc(O)c2c(=O)cc(-c3ccccc3)oc2c1 | i
CN(C)CC#CCNC(=O)Cn1ccc2ccccc21 | i
COc1ccc(OC(=O)N(C)c2ccc(C)cc2)cc1 | i
O=P1(N(CCCl)CCCl)NCCCO1 (stereo unspecified) | i
COc1ccc(Br)cc1/C=C1\Oc2cc(OC(=O)N(C)C)ccc2C1=O | i
CC(C)N(CC#CCNC(=O)c1cnccn1)C(C)C | i
COc1cccc(CCNC(=O)c2cc3cccnc3n(Cc3ccccc3)c2=O)c1 | i
C[C@]12CC(=CO)C(=O)C[C@@H]1CC[C@@H]1[C@@H]2CC[C@@]2(C)[C@H]1CC[C@]2(C)O | i
C=C(C)[C@H]1CCC(C)=C[C@@H]1c1c(O)cc(CCCCC)c(C(=O)O)c1O | i
COc1ccc(C)cc1NC(=O)c1c(O)c2cccnc2n(Cc2ccccc2)c1=O | i
CC(=O)c1cccc(NC(=O)c2cc3cccnc3n(Cc3ccc(F)cc3)c2=O)c1 | i
CN(C)c1ccc(/C=C2\CC3C4CCC5CCCCC5(C)C4CCC3(C)C2=O)cc1 (stereo unspecified) | i
O=C(c1ccco1)N1CC2CC(C1)c1cccc(=O)n1C2 (stereo unspecified) | i
COc1ccc(-c2c(C)oc3cc(OC(=O)N(C)C)ccc3c2=O)cc1 | i
CC(=O)C12CC/C=C\C(=O)OC3CC4OC5C=C(C)CCC5(COC(=O)/C=C(/CCO1)C2O)C3(C)C41CO1 (stereo unspecified) | i
CS(=O)(=O)Nc1ccc(Cc2noc(-c3ccc4[nH]cc(CCN)c4c3)n2)cc1 | i
O=C(NCC#CCN1CCCCC1)c1cccs1 | i
CN(C)C(=O)Oc1ccc2c(=O)c(Oc3ccccc3Br)coc2c1 | i
CCOP(=O)(OCC)c1ccc(C=O)o1 | i
CC(=O)Nc1ccc(NC(=O)c2cc3cccnc3n(Cc3ccccc3F)c2=O)cc1 | i
NCC1(CC(=O)O)CCCCC1 | i
O=C(c1ccc(F)cc1F)N1CC2CC(C1)c1cccc(=O)n1C2 (stereo unspecified) | i
O=C(NCCCN1CCCC1=O)c1cc2cccnc2n(Cc2ccc(F)cc2)c1=O | i
O=C(N1CCC2(CC1)OCCCO2)C1(c2ccccc2)CCOCC1 | i
Further entries:
SMILES | GIRK2 activ
CC(C)N(CC#CCNC(=O)c1cn(C)nn1)C(C)C | i
COc1ccc(N2CCN(CCN)CC2)cc1 | i
O=C(Cc1c[nH]c2ccccc12)N1CCN(CCn2cccn2)CC1 | i
CN(C)CC#CCNC(=O)NC1CCCCC1 | i
COC(/C=C/CC/C=C/C(=O)O)C(O)C(C)C(O)/C(C)=C/C(C)C(=O)CCCC1CC(=O)NC(=O)C1 (stereo unspecified) | i
CCN(CC)CCN(C(=O)Cc1ccccc1)c1nc2ccc(S(C)(=O)=O)cc2s1 | i
O=C(Cc1ccccc1Cl)N1CCN(CC(F)(F)F)CC1 | i
O=C(CCCS(=O)(=O)Cc1ccccc1)Nc1ccc(Cl)cc1C(=O)c1ccccc1 | i
c1ccc(C2COCCN2)cc1 (stereo unspecified) | i
CC(C)(O)[C@@H]1[C@H]2OC(=O)[C@@H]1[C@]1(O)C[C@H]3O[C@]34C(=O)O[C@H]2[C@]14C | i
O=C(Cc1cccs1)N1CCN(CCn2cccn2)CC1 | i
CC(C)(c1ccc(OCC2CO2)cc1)c1ccc(OCC2CO2)cc1 (stereo unspecified) | i
Cc1cccc(CC(=O)N2CCN(CC(F)(F)F)CC2)c1 | i
O=C(NCC#CCN1CCCCCC1)C1CCC1 | i
COc1ccc(CC(=O)N2CCN(Cc3nnnn3-c3ccc(F)cc3)CC2)cc1OC | i
CCC(=O)[C@@H](C)[C@@H](O)[C@H](C)C[C@@H](C)C1OC(=O)C[C@@]2(O)CC=C(C)[C@H](O2)/C(C)=C/CCC[C@H](O[C@H]2C[C@H](OC(N)=O)[C@H](O)C(C)O2)/C=C/[C@H](C)C[C@H]1C (stereo partly specified) | i
O=C1CC[C@@]2(O)[C@H]3Cc4ccc(O)c5c4[C@@]2(CCN3CC2CC2)[C@H]1O5 | i
O=C(Cc1cccs1)N1CCN(Cc2nc(-c3ccco3)cs2)CC1 | i
CN(C)C(=O)Oc1ccc2c(c1)O/C(=C\c1cccc(Br)c1)C2=O | i
O=C(Nc1ccc(F)cc1F)c1cc2cccnc2n(Cc2ccccc2F)c1=O | i
O=C(Cc1cccc(F)c1)N1CCN(Cc2cnnn2-c2ccccc2Cl)CC1 | i
O=C(Cc1cccs1)NCC#CCN1CCCC1 | i

Part of the list above in order of formula weight, lowest first:
SMILES | GIRK2 activ
CCCS(=O)(=O)NCC#CCN(C(C)C)C(C)C | i
CCC1=CC2CN3CCc4c([nH]c5ccccc45)[C@@](C(=O)OC)(C2)[C@@H]13 | i
CNC(=O)Oc1cc(C)c(/C=C/c2cncc(C(=O)NC)c2)c(C)c1 | i
